Assay outcomes from PubChem.
PINK1 expr mod: PINK1 expression modulation; PINK1 immunofluorescence, high-content cytometry, 24 h; 410,000 compounds, 0.2% hits; Potency, µM (top dose mostly 76.6 µM), inactives show at the top dose activation (PINK1 increase), usual class: activators; active = well fitted activation curve with a large enough effect; inconclusive = small, poorly fitted or top-dose-only effect; inactive = flat fitted curve, though single readings scatter; cell line not stated here;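 further: potency means the concentration at half of the fitted maximal effect; % of control where 0% means no effect; nearly all actives have a fitted effect of over 65% in size; a mitochondrial uncoupler was the plate control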
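Cells are seeded, rested 12 hours, then given compound at five concentrations or DMSO for 24 hours. After fixation, blocking and antibody staining, PINK1 amount and mitochondrial localization are scored; CCCP serves as control.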
D2 agonist: activates the human D2 dopamine receptor; P14416; 360,000 compounds, 0.084% hits; DiscoveRx PathHunter D2 beta-arrestin, luminescence, 90 min; 100% = 57 uM dopamine signal; activation, % (concentration not given with the values); AID 624465; in the data active = activation above about 40%; inconclusive = about 15% to 40%; inactive = below about 15%; further: the text of the record calls up to 30% inactive
Target sequence (P14416 whole entry, looked up): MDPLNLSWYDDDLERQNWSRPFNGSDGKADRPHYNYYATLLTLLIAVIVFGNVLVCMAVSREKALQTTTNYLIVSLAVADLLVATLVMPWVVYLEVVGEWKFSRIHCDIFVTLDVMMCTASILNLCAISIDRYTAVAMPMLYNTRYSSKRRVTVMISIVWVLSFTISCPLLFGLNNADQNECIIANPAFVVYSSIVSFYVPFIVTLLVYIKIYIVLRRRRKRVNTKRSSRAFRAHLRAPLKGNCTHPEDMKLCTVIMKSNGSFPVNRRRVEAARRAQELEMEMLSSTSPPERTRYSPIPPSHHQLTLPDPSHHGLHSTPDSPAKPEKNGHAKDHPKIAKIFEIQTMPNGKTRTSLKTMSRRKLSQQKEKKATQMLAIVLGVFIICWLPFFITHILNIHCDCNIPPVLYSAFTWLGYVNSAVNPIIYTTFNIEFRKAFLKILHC
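Agonist mode: compounds alone added to overnight-plated D2 PathHunter cells for 90 min at 37 C, with 57 uM final dopamine (EC100) defining full response. Beta-arrestin recruitment detected by chemiluminescent reagent, read after 1 h at ambient temperature.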
TRPML1 blocker: human mucolipin-1 channel inhibition; Q9GZU1; TRPML1-inducible cells, Ca2+ dye fluorescence, FDSS; stronger effect = lower value; inhibition of EC80 agonist-evoked calcium signal; activity change, negative = inhibition, % (concentration not given with the values); 390,000 compounds, 0.02% hits; in the data active means activity change below about -50%; inconclusive means about -30% to -50%; inactive means above about -30%;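 further: stimulus is agonist 54-4 at its EC80 concentration; on the % scale 0 is the no-effect control and ±100 the full control effect; the text of the record puts the active cut at -80%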
Target sequence (Q9GZU1 whole entry, looked up): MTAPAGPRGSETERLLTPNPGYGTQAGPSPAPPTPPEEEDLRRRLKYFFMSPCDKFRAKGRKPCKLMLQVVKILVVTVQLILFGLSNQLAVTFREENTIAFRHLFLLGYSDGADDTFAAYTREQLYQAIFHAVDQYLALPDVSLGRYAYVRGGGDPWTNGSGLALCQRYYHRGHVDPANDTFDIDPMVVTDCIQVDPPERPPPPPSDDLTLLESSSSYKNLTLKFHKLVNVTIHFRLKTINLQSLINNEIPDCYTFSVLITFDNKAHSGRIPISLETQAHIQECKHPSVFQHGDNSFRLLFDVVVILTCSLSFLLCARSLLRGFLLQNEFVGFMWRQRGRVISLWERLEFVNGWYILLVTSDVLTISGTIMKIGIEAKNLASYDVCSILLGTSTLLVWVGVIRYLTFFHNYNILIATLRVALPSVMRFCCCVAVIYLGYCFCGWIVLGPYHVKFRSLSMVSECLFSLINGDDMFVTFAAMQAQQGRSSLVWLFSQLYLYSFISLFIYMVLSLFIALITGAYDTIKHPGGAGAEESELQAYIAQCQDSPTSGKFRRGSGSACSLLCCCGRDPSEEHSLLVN
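Calcium fluorescence in TRPML1-DL cells induced overnight with Tet: a 110 s read after compound pin addition, then a 110 s antagonist read after challenge with 54-4 at 4 uM final (EC80).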
TRPML1 agonist: activates the human TRPML1 channel; TRPML1-expressing cells, Ca2+ dye fluorescence, FDSS; host cell line not named in the record; reference of the full effect not given here; activation, % (no concentration beside the values); 410,000 compounds, 0.12% hits; in the data active = activation above about 50%; inconclusive = about 30% to 50%; inactive = below about 30%; further: 0% is about no effect; the text of the record puts the active cut at 80%
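Tet-induced TRPML1-DL cells, 1,500 per well, cultured overnight, were loaded with a no-wash Ca2+ dye for 45–90 min. Calcium fluorescence was recorded on the FDSS for 110 s after compound addition, before the EC80 agonist (4 uM 54-4) was added.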
Six1-Eya2 inh: inhibitors of human Six1/Eya2 interaction; AID 651725; AlphaScreen GST-Six1/His-Eya2 binding, biochemical; stronger effect = lower value; control for the full effect not named in the record; activity change, % (no concentration beside the values); 360,000 compounds, 0.56% hits; in the data active = activity change below about -65%; inconclusive = about -30% to -65%; inactive = above about -30%; further: on the % scale 0 is the no-effect control and ±100 the full control effect
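AlphaScreen luminescence read after one hour at 37 °C in darkness. Pin-transferred compounds met GST-Six1 and His-Eya2 protein (5X stock 250 nM/500 nM) plus glutathione donor and Ni-chelate acceptor beads (5X, 50 ug/mL).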
D2 PAM: positive allosteric modulators of human D2 dopamine receptor; P14416; DiscoveRx D2 beta-arrestin cells, luminescence, 90 min; 100% = 57 uM dopamine signal; potentiation, % (no concentration beside the values); 360,000 compounds, 0.23% hits; AID 624464; active = potentiation of 50% or more; inconclusive = 30% to 50%; inactive = 30% or less;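 further: compound concentration not given in the record; tested on top of an EC20 dose of dopamine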
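PathHunter D2 cells, attached overnight at 37 deg C, received compound in DMSO plus dopamine at EC20 (50 nM final) for 90 min at 37 deg C. Beta-arrestin recruitment was read as luminescence after 1 h with detection reagent at ambient temperature.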
Numbers without * were called inactive; ? = inconclusive; · = not tested or not shown; & = joins results of further samples; [ ] = remark or other dose.

SMILES | PINK1 expr mod | D2 agonist | TRPML1 blocker | TRPML1 agonist | Six1-Eya2 inh | D2 PAM
CC(C)C[C@H]1CN([C@@H](Cc2ccc(O)cc2)CN2CCC[C@H]2CN2C(=O)C(=O)NC[C@@H]2Cc2ccccc2)C(=O)C(=O)N1CCc1ccccc1 | 0.1% | · | · | -0.4 | 12.1 | ·
COc1ccc(OCCCCn2c(CO)nc3ccccc32)cc1 | 0.4% | 9.7 | 2.4 | 0.6 | -2.6 | 2.8
COc1ccc2c(c1)c1c(c(=O)n(-c3cccc(Cl)c3)c(=O)n1CC(=O)NCC1CCCO1)n2C (stereo not given) | 1.3% | · | -5.5 | 0.1 | · | ·
COc1ccc(CCNC(=O)COC(=O)C23CC4CC(CC(Br)(C4)C2)C3)cc1 | 2.4% | -1.2 | 15.9 | 0.5 | -10.6 | -7.0
N#C/C(=N\Nc1ccc(S(=O)(=O)N2CCc3ccccc32)cc1)C(N)=S | ? | -15.8 | 26.5 | 1.6 | -23.8 | -17.4
Cc1noc2ncnc(Nc3ccc(F)cc3)c12 | 1.3% | · | -22.4 | -0.4 | · | ·
C[C@H]1CN([C@@H](C)CO)C(=O)Cc2cc(NS(=O)(=O)c3cn(C)cn3)ccc2O[C@@H]1CN(C)C(=O)Nc1ccc(F)cc1 | -0.1% | -1.4 | 4.4 | -0.4 | 6.0 | -13.2
C=CCC[C@@H](Cc1ccc(F)cc1)C(=O)OCCNC(=O)[C@@H](CC=C)CC(=O)N(CCO)Cc1ccccc1 | 1.1% | 5.1 | -3.1 | 1.5 | 5.7 | 5.8
CCN(CC)CCCNC(=O)c1cc(-c2ccc(Cl)c(Cl)c2)on1 | 6.5%[38.3 µM] | -1.4 | -2.5 | 0.8 | -0.5 | -20.7
CCC(=O)N1CCc2cc(Br)cc(S(=O)(=O)CCC(=O)NCCc3ccccc3Cl)c21 | -1.3% | · | -18.8 | -1.1 | · | ·
CCCOc1ccc(/C(O)=C2/C(=O)C(=O)N(CCCn3ccnc3)C2c2cccnc2)cc1 (stereo not given) | 2.0% | -1.3 | -7.3 | 0.0 | -12.6 | -15.9
CCOc1ccc(N(CC(=O)NCc2ccc(C)cc2)S(=O)(=O)c2c(C)noc2C)cc1 | -0.2% | · | -8.1 | -1.0 | · | ·
CCN(CC)CCOC(=O)c1ccc(NC(=O)CCn2c(=O)oc3ccccc32)cc1 | 1.3% | · | -4.9 | -0.4 | · | ·
CC(C)CCNC(=O)C1CCN(S(=O)(=O)c2ccc3c(c2)CCC(=O)N3)CC1 | 5.5% | -1.9 | 4.0 | 0.1 | -4.5 | -10.6
COc1ccc(-c2c(NC(=O)c3ccco3)oc3ccc(Cl)cc3c2=O)cc1 | 2.1% | -4.8 | 4.9 | -0.1 | 4.1 | 6.3
Cc1cc(-c2nc(C)c(C(=O)NNC(=O)NC(C)C)s2)no1 | -1.9% | 0.0 | -9.3 | -0.4 | 4.0 | -6.9
CN(C(=O)c1ccc(N2CCOCC2)c([N+](=O)[O-])c1)C1CCCCC1 | -1.6% | 0.1 | 0.7 | 0.3 | -13.2 | -8.0
CC(=O)Nc1ccc(-c2ccnc3c2CC(C)(C(=O)NCC2CC2)O3)cc1 (stereo not given) | 4.2% | 5.0 | · | -0.5 | 0.9 | 4.0
Cc1cc(C)c(NC(=O)C2CCN(C(=O)N3CC(C)Oc4ccc(Cl)cc43)CC2)c(C)c1 (stereo not given) | 0.6% | · | -3.0 | -1.0 | · | ·
Cn1cnc2c(N/N=C/c3cccs3)ncnc21 | 4.0% | 2.2 | 22.3 | 0.5 | ? | -9.9
c1ccc2c(c1)CCN2CCN1CCc2ccccc21 | 2.9% | 0.1 | 9.4 | 0.3 | -18.4 | -1.7
O=C(Cn1cnc2c(NCc3ccccc3)ncnc21)N1CCN(c2ccccn2)CC1 | 0.1% | -2.5 | 24.8 | -0.7 | -0.4 | -1.9
CCC(C)N(C(=O)CSc1nnc(-c2ccco2)n1C)C1CCS(=O)(=O)C1 (stereo not given) | -1.7% | 1.8 | 14.3 | 2.3 | 3.4 | -66.1
O=C(O)C1CCCN1C(=O)Oc1ccccc1 (stereo not given) | 3.5%[38.3 µM] | -0.6 | 3.1 | -0.4 | 0.6 | -9.1
COC(=O)c1ccc(C2NCCc3cc(OC)c(OC)cc32)cc1 (stereo not given) | -0.3% | -1.3 | 4.1 | 0.4 | 2.1 | -4.0

Three of the entries above in order of their number in TRPML1 blocker, rising:
Structure	TRPML1 blocker
Cc1noc2ncnc(Nc3ccc(F)cc3)c12	-22.4
COc1ccc(-c2c(NC(=O)c3ccco3)oc3ccc(Cl)cc3c2=O)cc1	4.9
c1ccc2c(c1)CCN2CCN1CCc2ccccc21	9.4

In the list so far, these have fluorine:
SMILES | PINK1 expr mod | D2 agonist | TRPML1 blocker | TRPML1 agonist | Six1-Eya2 inh | D2 PAM
Cc1noc2ncnc(Nc3ccc(F)cc3)c12 | 1.3% | · | -22.4 | -0.4 | · | ·
C[C@H]1CN([C@@H](C)CO)C(=O)Cc2cc(NS(=O)(=O)c3cn(C)cn3)ccc2O[C@@H]1CN(C)C(=O)Nc1ccc(F)cc1 | -0.1% | -1.4 | 4.4 | -0.4 | 6.0 | -13.2
C=CCC[C@@H](Cc1ccc(F)cc1)C(=O)OCCNC(=O)[C@@H](CC=C)CC(=O)N(CCO)Cc1ccccc1 | 1.1% | 5.1 | -3.1 | 1.5 | 5.7 | 5.8

(next part)
SMILES | PINK1 expr mod | D2 agonist | TRPML1 blocker | TRPML1 agonist | Six1-Eya2 inh | D2 PAM
COc1ccc(C(=O)N2CCN(CCNC(=O)C(=O)Nc3ccc(Br)cc3)CC2)cc1 | ? | -1.5 | -25.3 | 0.9 | 3.0 | -8.6
O=C1NC[C@H](Cc2ccc(O)cc2)N(C[C@@H]2CCCN2C[C@H](Cc2ccc(O)cc2)N2C[C@H](Cc3ccccc3)N(CC3CCCCC3)C(=O)C2=O)C1=O | 0.8% | · | · | -0.1 | 3.4 | ·
CSc1cccc(NS(=O)(=O)c2ccc3[nH]cc(C(=O)N4CCCC4)c(=O)c3c2)c1 | 3.4% | · | -16.3 | 3.8 | · | ·
CCCCNC(=O)C1CCC(CNS(=O)(=O)c2ccc(C)cc2)CC1 (stereo not given) | -1.2%&-0.5% | -0.3 | -0.4&-12.8 | 0.9&1.0 | 5.2 | -3.7
O=C(C1CCN(S(=O)(=O)c2ccc3ccccc3c2)CC1)N1CCN(c2ncccn2)CC1 | -1.7% | 2.9 | -0.3 | -1.1 | -2.1 | 1.7
COC(=O)n1c(=O)oc2ccc(S(=O)(=O)N3CCCCC3)cc21 | -0.3% | -0.1 | 0.5 | 0.4 | -4.6 | -2.4
CC(C)OC(=O)NC(Nc1ccccc1C(=O)O)(C(F)(F)F)C(F)(F)F | -0.3% | -5.5 | 2.1 | -0.2 | 3.2 | -10.2
COc1ccc(C2=NN(C(=O)CCC(=O)O)C(c3ccc(Br)cc3)C2)cc1 (stereo not given) | 0.6% | -4.5 | -3.8 | -0.1 | 3.7 | -0.9
Cc1ccc(CNC(=O)c2cccnc2Sc2cccc(Cl)c2)cc1 | 9.0% | -6.8 | -12.3 | 3.8 | -4.5 | -8.8
CCOc1nc(Nc2ccc(OC)cc2OC)nc(OCC)n1 | 0.6% | 0.9 | · | · | -1.0 | 4.5
Cc1ccc2nc(Nc3ccc(C)c(C)c3)c3nncn3c2c1 | -0.7% | 8.1 | -5.2 | 0.6 | 3.7 | -2.6
O=C(Nc1ccc(Cl)cn1)c1ccc(Br)c(S(=O)(=O)N2CCCCC2)c1 | 1.8% | 4.5 | 9.5 | -0.9 | -0.7 | 2.6
CC(C)C1C(=O)N(Cc2cn(CCC3OCCCO3)nn2)CCS(=O)(=O)N1Cc1ccc(-c2ccc(Cl)c(Cl)c2)cc1 (stereo not given) | ? | -0.4 | 19.7 | 0.3 | 2.9 | -14.4
CCCN(CCC)CCCNC(=O)c1cn(C)c2ccc(S(=O)(=O)N3CCOCC3)cc2c1=O | 0.5% | · | 16.0 | -0.2 | · | ·
CC1CCN(C(=O)CCC(=O)N2CC(C)Oc3ccccc32)CC1 (stereo not given) | 0.6% | 2.0 | -7.1 | -0.1 | 5.0 | -0.7
CCOc1ccc(/C=C2\SC(=O)N(CCNC(=O)C3COc4ccccc4O3)C2=O)cc1OC (stereo not given) | 2.4% | -0.7 | -18.8 | -0.3 | -11.1 | ?
O=C(/C=C/c1ccccc1)N(c1ccccn1)C1CCCCC1 | 1.5% | 12.8 | -11.4 | 1.5 | 3.2 | 7.7
COc1cc(C2Nc3ccc4ncccc4c3C3=C2C(=O)CCC3)cc(OC)c1OC (stereo not given) | 9.8% | -0.1 | -3.5 | 1.2 | -0.6 | -6.6
COc1ccc(N(Cc2cc(=O)[nH]c3ccccc23)C(=O)CCl)cc1 | 0.0% | -1.9 | 0.2 | -0.5 | 6.6 | 1.1
Cc1csc(NC(=O)C2(C)CCN2C(=O)C(C)C)c1C#N (stereo not given) | 0.4% | 6.1 | · | -0.9 | 1.1 | -15.7
O=C(CC1Nc2ccccc2NC1=O)Nc1ccc2c(c1)OCO2 (stereo not given) | 22.7% | -3.0 | -5.0 | -0.4 | -2.2 | -3.7
CCc1nn(CCCN2CCN(c3cccc(Cl)c3)CC2)c(=O)n1CCOc1ccccc1 | 1.4%&-0.4% | -5.4&-3.6 | -8.8&-1.0 | -0.1&-0.7 | -14.3&-9.0 | -35.2&-31.4
O=C(c1nc(-c2ccccc2)n(-c2ccccc2)n1)N1CCN(S(=O)(=O)c2ccccc2)CC1 | 0.2% | -2.7 | 2.3 | -0.3 | -3.3 | 4.6
COC(=O)CSc1cccc2c1C(=O)CC2c1ccccc1 (stereo not given) | -0.8% | -3.1 | -11.0 | 1.3 | 0.7 | -12.4
O=C(NC1CCCCC1)c1ccc(-c2ccccc2)cc1 | 5.2% | 1.3 | 23.0 | 0.4 | 2.1 | -0.8
SMILES | PINK1 expr mod | D2 agonist | TRPML1 blocker | TRPML1 agonist | Six1-Eya2 inh | D2 PAM
Cc1cccc(NS(=O)(=O)c2cc(C(=O)N3CCCC3)ccc2Cl)c1 | 2.3% | -1.0 | 10.2 | 0.4 | -7.4 | -12.8
COC(=O)[C@H](CC(C)C)NC(=O)CC[C@H]1O[C@@H](n2cc(C)c(=O)[nH]c2=O)C[C@@H]1O | 0.2% | -4.9 | 2.6 | -0.4 | 3.1 | 0.1
O=c1[nH]c(/C=C\c2cccc(O)c2)nc(O)c1[N+](=O)[O-] | 1.0% | -0.4 | -8.0 | 0.3 | -6.9 | -1.0
COc1ccc(CNCCC(c2ccc(OC(C)C)cc2)c2ccccc2OC)cc1 (stereo not given) | -1.0% | -6.5 | · | · | -26.5 | -23.9
Clc1ccc(CONc2ncnc3nonc23)c(Cl)c1 | ? | -2.3 | -23.4 | 0.3 | -0.6 | -8.1
Cc1cccc(C)c1OCC(=O)NNC(=O)c1ccoc1C | 10.9% | 0.4 | -9.9 | 0.0 | 10.9 | 15.1
O=C(COc1ccc(Br)cc1)Nc1ccccc1C(=O)N1CCOCC1 | -0.5% | -5.5 | 1.6 | 0.5 | 2.3 | -4.2
COc1ccc(-c2ccnc3c(C(=O)O)cnn23)cc1 | 0.8% | -6.5 | -17.3 | 0.7 | -0.6 | -3.0
